Source: PubChem BioAssay (Broad Institute)
NOMO-1 viab = STK33 inhibitor candidate reducing NOMO-1 cell viability; NOMO-1 AML viability, CellTiter-Glo luminescence, 72 h; inhibition, % (test concentration not listed); AID 2330; 37,000 tested, 7.5% active;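 active means most replicates above 80%; inconclusive means exactly half above 80%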;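 further: wells of about 30 µL received 25 nL stock; 0% = median of vehicle wells and 100% = reference inhibitor level; the first replicate is given; inactives centre near 10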
An asterisk follows results filed as active; ? = inconclusive. This is a subset; rates above refer to the full screens.

SMILES	NOMO-1 viab
CC(=O)N1[C@@H](c2ccc(C)cc2)SC(C)(C)[C@@H]1C(=O)O	27.9
N/C(=N\O)c1ccc(Cl)cc1	23.5
c1ccc(SCCN2CCN(CCSc3ccccc3)CC2)cc1	29.8
Cc1noc(C)c1NC(=O)N(C)C[C@H]1Oc2c(NC(=O)CCCCCC(=O)Nc3ccccc3N)cccc2C(=O)N([C@@H](C)CO)C[C@H]1C	-6.5
CNC(=S)Nc1cscc1S(=O)(=O)c1ccc(Cl)cc1	3.8
Cc1ccc(S(=O)(=O)N2CCCC(C(=O)Nc3ccc4c(c3)OCCO4)C2)cc1 (configuration not stated)	31.9
O=C(/C=C/Sc1ccccn1)c1ccccc1	114.3*
C[C@@H]1CN([C@H](C)CO)C(=O)c2cc(NS(=O)(=O)c3cccs3)ccc2O[C@H]1CN(C)S(=O)(=O)c1ccc(F)cc1	12.4
O=C(Cc1ccccc1[N+](=O)[O-])Nc1ccc2c(c1)OCCO2	15.1
Cc1noc(C)c1NC(=O)Nc1ccc2c(c1)CC(=O)N([C@@H](C)CO)C[C@@H](C)[C@@H](CN(C)S(C)(=O)=O)O2	-6.1
C[C@@H]1O[C@@H](O[C@H]2CC[C@@]3(C)C(CC[C@]4(C)C3CC=C3C5CC(C)(C)CC[C@]5(C(=O)O[C@@H]5O[C@H](CO)[C@@H](O)[C@H](O)[C@H]5O)CC[C@]34C(=O)O)C2(C)C)[C@H](O)[C@H](O)[C@H]1O (some centres not stated)	15.5
CC1(C)CC(=O)C2=C(C1)Nc1ccccc1N(C(=O)Cc1ccccc1)C2c1ccc(-c2ccccc2[N+](=O)[O-])o1 (configuration not stated)	35.2
COc1ccc(S(=O)(=O)N(C)C[C@@H]2Oc3ccc(NC(=O)Nc4ccccc4)cc3C(=O)N([C@H](C)CO)C[C@@H]2C)cc1	47.0
COc1ccc(NC(=O)N(C)C[C@@H]2Oc3ccc(NC(=O)C4CCCCC4)cc3CC(=O)N([C@@H](C)CO)C[C@@H]2C)cc1	7.7
Nc1ncc(-c2cc3ccccc3oc2=O)s1	71.4
C[C@H](CO)N1C[C@H](C)[C@H](CN(C)C(=O)Nc2cccc3ccccc23)Oc2ccc(NC(=O)Cc3cn(C)c4ccccc34)cc2CC1=O	12.5
Cc1cc(C(=O)Nc2cccc3c2O[C@@H](CN(C)C(=O)Nc2ccccc2)[C@@H](C)CN([C@@H](C)CO)C3=O)n(C)n1	12.9
O=C(NCCc1ccccc1)c1ccc(-c2ccccc2)cc1	23.6
COc1ccc(NC(=O)Nc2ccc3c(c2)C(=O)N([C@@H](C)CO)C[C@H](C)[C@H](CN(C)Cc2ccc4c(c2)OCO4)O3)cc1	98.0*
C[C@@H]1CN([C@@H](C)CO)C(=O)c2cccc(NS(=O)(=O)c3ccc(F)cc3)c2O[C@@H]1CN(C)S(C)(=O)=O	1.9
Cn1c(SCC(=O)Nc2ccc(Br)cc2Cl)nnc1-c1ccncc1	-6.9
C[C@@H]1CN([C@H](C)CO)C(=O)Cc2cc(NC(=O)Nc3ccc4c(c3)OCO4)ccc2O[C@H]1CN(C)C(=O)Nc1ccccc1	7.7
O=C(/C=C/c1ccccc1)CC(=O)/C=C/c1ccccc1	57.8
C[C@@H]1CN([C@H](C)CO)C(=O)c2cccc(NC(=O)C3CCCCC3)c2O[C@H]1CN(C)C(=O)Nc1ccc(C(F)(F)F)cc1	5.9
C[C@H]1CN([C@@H](C)CO)C(=O)c2cc(NC(=O)Nc3cccc4ccccc34)ccc2O[C@@H]1CN(C)C(=O)Nc1ccc(C(F)(F)F)cc1	85.9*

Gathered by group: those above containing a halogen
SMILES	NOMO-1 viab
N/C(=N\O)c1ccc(Cl)cc1	23.5
CNC(=S)Nc1cscc1S(=O)(=O)c1ccc(Cl)cc1	3.8
C[C@@H]1CN([C@H](C)CO)C(=O)c2cc(NS(=O)(=O)c3cccs3)ccc2O[C@H]1CN(C)S(=O)(=O)c1ccc(F)cc1	12.4
C[C@@H]1CN([C@@H](C)CO)C(=O)c2cccc(NS(=O)(=O)c3ccc(F)cc3)c2O[C@@H]1CN(C)S(C)(=O)=O	1.9
Cn1c(SCC(=O)Nc2ccc(Br)cc2Cl)nnc1-c1ccncc1	-6.9
C[C@@H]1CN([C@H](C)CO)C(=O)c2cccc(NC(=O)C3CCCCC3)c2O[C@H]1CN(C)C(=O)Nc1ccc(C(F)(F)F)cc1	5.9
C[C@H]1CN([C@@H](C)CO)C(=O)c2cc(NC(=O)Nc3cccc4ccccc34)ccc2O[C@@H]1CN(C)C(=O)Nc1ccc(C(F)(F)F)cc1	85.9*

Remaining list, next part:
SMILES	NOMO-1 viab
C[C@@H]1CN([C@@H](C)CO)C(=O)Cc2cc(NC(=O)CCN3CCOCC3)ccc2O[C@@H]1CN(C)CC1CCCCC1	27.9
O=C(CSc1nnc(-c2ccncc2)o1)c1ccc2ccccc2c1	33.4
Cc1ccc2oc(C(=O)Nc3sc4c(c3C(=O)NC3CCS(=O)(=O)C3)CCC4)c(C)c2c1 (configuration not stated)	105.8*
CC(C)NC(=O)N(C)C[C@H]1Oc2ccc(NC(=O)Nc3cccc4ccccc34)cc2C(=O)N([C@H](C)CO)C[C@H]1C	12.6
O=S1(=O)NC(=NCCCCO)c2ccccc21	22.3
CC(C)NC(=O)Nc1ccc2c(c1)C(=O)N([C@H](C)CO)C[C@H](C)[C@@H](CN(C)CC1CC1)OCCCC[C@@H](C)O2	8.9
CC(C)NC(=O)Nc1ccc2c(c1)C(=O)N([C@H](C)CO)C[C@@H](C)[C@@H](CN(C)Cc1ccc(Cl)c(Cl)c1)O2	18.2
C[C@@H]1CCCCO[C@@H](CN(C)Cc2ccncc2)[C@@H](C)CN([C@H](C)CO)C(=O)c2cc(NC(=O)C3CCCCC3)ccc2O1	8.3
C[C@@H]1CN([C@H](C)CO)C(=O)c2cc(NC(=O)Cc3cn(C)c4ccccc34)ccc2O[C@H]1CN(C)S(=O)(=O)c1cn(C)cn1	-2.3
COC(=O)c1ccccc1NC(=O)c1ccc(NC(=O)COc2ccccc2C)cc1	?
COc1ccc(NC(=O)N(C)C[C@H]2Oc3ccc(NS(=O)(=O)c4ccc(OC)cc4)cc3CC(=O)N([C@@H](C)CO)C[C@H]2C)cc1	6.5
C[C@H](CO)N1C[C@H](C)[C@@H](CN(C)Cc2ccc(Oc3ccccc3)cc2)Oc2ccc(NC(=O)Cc3cn(C)c4ccccc34)cc2C1=O	40.6
CCOC(=O)c1c(NC(=O)c2ccc(C)c(S(=O)(=O)N3CCCCCC3)c2)sc(C)c1C	-8.3
CC(=O)c1cccc(NC(=O)C(C)NS(=O)(=O)c2ccc(C)cc2)c1 (configuration not stated)	14.7
C[C@H](CO)N1C[C@H](C)[C@@H](CN(C)Cc2ccc(-c3ccccc3)cc2)Oc2ccc(NS(=O)(=O)c3cn(C)cn3)cc2C1=O	3.9
C[C@@H]1CN([C@H](C)CO)C(=O)Cc2cc(NC(=O)Nc3ccc(C(F)(F)F)cc3)ccc2O[C@@H]1CN(C)CC1CCCCC1	?
C[C@@H]1CN([C@H](C)CO)C(=O)c2cc(N(C)C)ccc2O[C@@H]1CN(C)C(=O)Nc1ccccc1	7.2
C[C@H]1CN([C@@H](C)CO)C(=O)c2cc(NC(=O)Nc3ccc4c(c3)OCO4)ccc2O[C@H]1CN(C)Cc1ccc2c(c1)OCO2	93.2*
Cc1noc(C)c1NC(=O)N(C)C[C@@H]1Oc2c(NS(=O)(=O)c3cn(C)cn3)cccc2C(=O)N([C@H](C)CO)C[C@@H]1C	6.1
C=C[C@@]12COC(=O)C(=C)[C@@H]1[C@@H](O)[C@H](C(=C)C(=O)OC)[C@@H](O)C2	83.3*
COc1ccc(S(=O)(=O)Nc2cccc3c2O[C@H](CN(C)C(=O)NC(C)C)[C@H](C)CN([C@H](C)CO)C3=O)cc1	-12.4
Cc1ccc(C)c(NC(=O)CSc2nc(C)nc3sc(C)c(C)c23)c1	6.5
CCOC(=O)c1c(NC(=O)CCN2CCC(C)CC2)sc2c1CC(C)(C)OC2	14.0
C[C@H]1CN([C@@H](C)CO)C(=O)Cc2cc(NC(=O)CCC(F)(F)F)ccc2O[C@H]1CN(C)Cc1ccc(C(=O)O)cc1	10.1
C[C@H]1CN([C@@H](C)CO)C(=O)c2cc(NC(=O)Cn3cnnn3)ccc2O[C@@H]1CN(C)C(=O)Nc1ccccc1	-29.8
Additional compounds:
SMILES	NOMO-1 viab
C[C@H]1CN([C@@H](C)CO)C(=O)c2cc(NS(=O)(=O)c3cn(C)cn3)ccc2O[C@H]1CN(C)S(=O)(=O)c1ccc(Cl)cc1	8.7
OCCSc1nnc(-c2ccccc2O)n1-c1ccccc1	45.1
O=C(CN1C(=O)c2ccccc2S1(=O)=O)Nc1ccccc1Cl	14.0
Cc1noc(C)c1NC(=O)Nc1ccc2c(c1)CC(=O)N([C@H](C)CO)C[C@@H](C)[C@@H](CN(C)S(=O)(=O)c1ccc(Cl)cc1)O2	27.3
COc1ccc(S(=O)(=O)Nc2ccc3c(c2)CC(=O)N([C@H](C)CO)C[C@@H](C)[C@@H](CN(C)C(=O)Nc2cccc4ccccc24)O3)cc1	-1.3
COc1ccc(Cl)cc1NC(=O)CSc1n[nH]c(-c2ccccc2C)n1	15.1
Cn1nnc(NC(=O)COc2ccc(Cl)cc2Cl)n1	12.9
NNC(=O)/C(=C\c1ccccc1)NC(=O)c1ccccc1	3.2
COc1ccc(S(=O)(=O)Nc2ccc3c(c2)CC(=O)N([C@@H](C)CO)C[C@H](C)[C@@H](CN(C)C(=O)Nc2ccccc2)O3)cc1	0.1
Cc1nn(C)c(C)c1CN(C)C(=O)c1cc2nc(-c3ccc(Cl)cc3)cc(C(F)(F)F)n2n1	36.3
O=C(CSc1n[nH]c(-c2ccccc2Cl)n1)Nc1ccccc1F	19.1
CCOC(=O)c1c(NC(=O)CSc2nc3ccccc3[nH]2)sc(C)c1C	20.9
COC(=O)c1sc(=S)sc1C(=O)OC	95.8*
CCC(=O)OCC(=O)[C@@]1(OC(=O)CC)[C@H](C)CC2C3C([C@@H](O)C[C@@]21C)[C@@]1(C)C=CC(=O)C=C1C[C@H]3Cl (some centres not stated)	40.6
CC(C)NC(=O)Nc1ccc2c(c1)CC(=O)N([C@H](C)CO)C[C@@H](C)[C@H](CN(C)Cc1ccc(Oc3ccccc3)cc1)O2	12.1
C[C@H]1CN([C@@H](C)CO)C(=O)c2cccc(NS(=O)(=O)c3ccc(F)cc3)c2O[C@H]1CN(C)Cc1ccc(Oc2ccccc2)cc1	19.0
C[C@@H]1CN([C@H](C)CO)C(=O)c2cccc(NC(=O)Nc3ccccc3)c2O[C@@H]1CN(C)C(=O)Nc1ccc(C(F)(F)F)cc1	16.1
NC(=O)c1c(NC(=O)c2cnn3c(C(F)F)cc(-c4ccccc4)nc23)sc2c1CCCC2	111.7*
COc1ccccc1NC(=O)CNC(=O)c1ccccc1	7.5
C[C@@H]1CN([C@@H](C)CO)C(=O)c2cccc(NS(=O)(=O)c3cn(C)cn3)c2O[C@@H]1CN(C)Cc1ccc2c(c1)OCO2	-20.4
CCOc1cc(C)c(C(C)C)cc1S(=O)(=O)NC1CC(C)(C)NC(C)(C)C1	21.8
COc1ccc(S(=O)(=O)N(C)C[C@H]2Oc3ccc(NS(=O)(=O)c4ccc(C)cc4)cc3C(=O)N([C@H](C)CO)C[C@@H]2C)cc1	31.8
CS(=O)(=O)N(CC(=O)Nc1cccc(Cl)c1Cl)Cc1ccccc1	26.7
Cc1noc(C)c1NC(=O)Nc1ccc2c(c1)CC(=O)N([C@@H](C)CO)C[C@H](C)[C@@H](CN(C)C(=O)Nc1cccc3ccccc13)O2	-1.1
C(=N\n1cnnc1)/c1ccco1	8.7

Random excerpt: two entries already listed, in no set order.
SMILES	NOMO-1 viab
Cc1nn(C)c(C)c1CN(C)C(=O)c1cc2nc(-c3ccc(Cl)cc3)cc(C(F)(F)F)n2n1	36.3
Cc1noc(C)c1NC(=O)Nc1ccc2c(c1)CC(=O)N([C@H](C)CO)C[C@@H](C)[C@@H](CN(C)S(=O)(=O)c1ccc(Cl)cc1)O2	27.3

(listing goes on)
SMILES	NOMO-1 viab
Cc1ccc(OCC(=O)OC2CCN(C)CC2)cc1	26.4
Cc1ccc(NC(=O)CSc2nc3sc4c(c3c(=O)n2-c2ccccc2)CCC4)c(C)c1	57.0
COC1OC2c3cc4c(cc3CCN(C)C2c2ccc3c(c21)OCO3)OCO4 (configuration not stated)	15.1
Cc1nc(C(N)=NC(=O)c2ccc(Cl)cc2)cs1	-1.5
C[C@@H]1CN([C@H](C)CO)C(=O)c2cc(NS(=O)(=O)c3ccccc3)ccc2O[C@H]1CN(C)Cc1ccc(-c2ccccc2)cc1	107.2*
C[C@@H]1CN([C@H](C)CO)C(=O)c2cc(NS(=O)(=O)c3ccc(F)cc3)ccc2O[C@@H]1CN(C)S(C)(=O)=O	17.0
CC(C)c1cc(I)ccc1NC(=O)CSc1nc2ccccc2c(=O)[nH]1	13.0
Cc1cc(=O)oc2cc(NC(=S)NCc3cccnc3)ccc12	65.2
C[C@H]1CN([C@@H](C)CO)C(=O)c2cccc(NC(=O)C3CCCCC3)c2O[C@H]1CN(C)S(=O)(=O)c1cccs1	17.2
C[C@H]1CN([C@@H](C)CO)C(=O)c2cc(NC(=O)Cn3cnnn3)ccc2O[C@H]1CN(C)S(=O)(=O)c1ccc(Cl)cc1	-2.0
CCc1ccc(N2C(N)=C(C#N)C(c3cccc(Cl)c3)c3c(C)noc32)cc1 (configuration not stated)	-11.1
C[C@@H]1CN([C@H](C)CO)C(=O)Cc2cc(NS(=O)(=O)c3ccccc3)ccc2O[C@@H]1CN(C)Cc1ccc(C(F)(F)F)cc1	?
CCN(CC(=O)Nc1cccc(SC)c1)S(=O)(=O)c1ccc(C)cc1	7.8
COc1ccc(NC(=O)Nc2cccc3c2O[C@H](CN(C)Cc2ccncc2)[C@@H](C)CN([C@@H](C)CO)C3=O)cc1	8.2
COc1ccc(S(=O)(=O)N(C)C[C@@H]2Oc3c(NC(=O)Nc4ccc5c(c4)OCO5)cccc3C(=O)N([C@H](C)CO)C[C@@H]2C)cc1	18.1
COc1ccc(S(=O)(=O)N(C)C[C@@H]2Oc3ccc(NS(=O)(=O)c4ccccc4)cc3C(=O)N([C@@H](C)CO)C[C@@H]2C)cc1	32.1
C[C@@H]1CN([C@@H](C)CO)C(=O)c2cccc(NC(=O)Nc3ccc(C(F)(F)F)cc3)c2O[C@@H]1CN(C)Cc1ccc(Oc2ccccc2)cc1	94.9*
